Choline anaer gr: choline-fed anaerobic bacterial growth inhibition; calls only; Gram-negative bacterium anaerobic choline minimal medium, absorbance growth; stronger effect = lower value; many inactives read as strong as hits in the columns shown; hit rate 0.2% among 55,000; AID 1963822;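 active = growth z-score on choline under -2 at 7 or 20 h with little or no fall on glycerol, limits in tiers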;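 also: stock transfer was 300 nL into about 50 µL; the organism is E. coli; final concentration not given here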
Choline anaer gr early: recorded beside Choline anaer gr, whose call it bears; z-score; measured here: choline growth z-score, timepoint 1;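 score of optical density at 7 h as mean of two plates; lower means less growth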
An asterisk follows results filed as active; i = inactive; & = joins results of further samples. Some of the compounds tested (hit frequency here may not be typical).

SMILES	Choline anaer gr	Choline anaer gr early
Cc1ccc(-c2nc3nc(C)cc(N(CCO)CCO)n3n2)cc1	i	0.45
Cn1cnc(S(=O)(=O)N2CCCC(C(=O)Nc3ccc(S(N)(=O)=O)cc3)C2)c1 (stereo unspecified)	i	-0.15
COc1cc(OC)c(NC(=O)C2CCN(c3ncccc3-n3c(C)ccc3C)CC2)cc1Cl	i	-0.63
COc1cccc(Cn2cnc3c([nH]c4ccc(C)cc43)c2=O)c1	i	0.22
N[C@H](C(=O)O)[C@H](Cc1ccccc1)C(=O)O	i	0.66
CC(C)Oc1ccc(-c2noc(CCn3nc(-c4ccc5c(c4)OCO5)ccc3=O)n2)cc1	i	1.9
O=C(COc1ccc(Cl)cc1)Nc1ccccc1SCc1nnc(-c2ccccc2)o1	i	1.3
Clc1ccc(-c2ccc(CNc3ncn[nH]3)o2)c(Cl)c1	i	-0.21
CCOc1ccc(NC(=O)c2cnn3c(C)cc(C)nc23)cc1	i	-0.16
Cn1c(=O)sc2cc(S(=O)(=O)N3CCN(C(=O)c4cc5ccccc5[nH]4)CC3)ccc21	i	0.69
CCc1ccc2c(c1)[C@H]1OCC[C@H]1C(c1cc(Br)ccc1OC)N2 (stereo partly specified)	i	-0.09
Cc1nc(N2CCCC(C(=O)NCCN3CCCC3)C2)c2c(C)noc2n1 (stereo unspecified)	i	-0.19
CC1CCc2[nH]nc(-c3nc(-c4ccc(Cl)cc4)no3)c2C1 (stereo unspecified)	i	-0.28
CC(C)Cc1cc(-c2nnc3sc(/C=C/c4ccco4)nn23)n[nH]1	i	0.6
O=C(O)[C@H](Cc1c[nH]c2ccccc12)N1C(=O)c2ccccc2C1=O	i	0.43
COc1cccc(C(=O)NCc2nc3cccnc3n2Cc2ccccc2)c1	i	-0.03
O=S(=O)(c1cc(-c2ccno2)cs1)N(CCc1ccccc1)Cc1ccccc1	i	2.4
CCOC(=O)c1c(C)nc2ccccc2c1N	i	-1
CCOC(=O)c1cc2n(n1)CC(C)(C(=O)NC1CCCC1)N(c1ccc3c(c1)OCO3)C2=O (stereo unspecified)	i	-1
Cn1nc(-c2ccccc2F)c2cc(C(=O)Oc3cccnc3)sc21	i	0.59
O=C(NCc1cccnc1)c1nc(-c2ccc(N3CCCC3)cc2)no1	i	0.75
Cc1nc(N(C)C)ncc1C(=O)NCc1cccnc1	i	-0.13
Cc1cc(NC(=O)CC2CCCCC2)n(-c2ncnc3c2cnn3-c2ccc(F)cc2)n1	i	-1.8
Cc1ccc(-n2c(-c3ccc(Cl)cc3)cn3c4c(=O)n(C)c(=O)n(C)c4nc23)cc1N	i	0.91
COc1ccc(CC2C(=O)Nc3ccccc32)cc1 (stereo unspecified)	i	-0.3
CCCc1nc2nc[nH]n2c(=O)c1NC(=O)Nc1ccc2c(c1)OCCO2	i	-1.2
Cc1ccc(-c2nc(C3CCN(C(=O)Cc4ccc(Br)cc4)CC3)no2)cc1	i	2.8
O=C(Nc1ccc2nc3n(c(=O)c2c1)CCCC3)c1cc2ccccc2[nH]1	i	0.33
CCOC(=O)c1c(NC(=O)c2ccc3c(c2)CC(c2ccccc2)OC3=O)sc(C)c1C (stereo unspecified)	i	1.1
CCOc1ccc(NC(=O)N2CCOc3ccc(Cl)cc32)cc1	i	-0.18

Quoted at random: 2 entries already listed.
SMILES	Choline anaer gr	Choline anaer gr early
Cc1ccc(-c2nc(C3CCN(C(=O)Cc4ccc(Br)cc4)CC3)no2)cc1	i	2.8
O=C(Nc1ccc2nc3n(c(=O)c2c1)CCCC3)c1cc2ccccc2[nH]1	i	0.33

(listing goes on)
SMILES	Choline anaer gr	Choline anaer gr early
COc1cccc(CNC(=O)Cn2c(=O)n(CCCCC(=O)NC(C)C)c(=O)c3ccccc32)c1OC	i	-0.71
CC(C)(C)c1ccc(C(CNC(=O)c2cc(=O)c3cc(Br)ccc3o2)N2CCCC2)cc1 (stereo unspecified)	i	1
Cc1ccc(NC(=O)c2cccc(NC3=NC4CS(=O)(=O)CC4S3)c2)cc1C (stereo unspecified)	i	-1.4
Cc1cccc(NS(=O)(=O)c2cn(C)cn2)c1C	i	-1.8
COCCn1c(CN2CCN(S(=O)(=O)c3ccc(C)cc3)CC2)nc2ccccc2c1=O	i	-0.07
Nc1ccn(C2OC(CO)C(O)C2O)c(=O)n1 (stereo unspecified)	i	-0.07&0.46
Cc1ccc(-c2nonc2NC(=O)C(C)Oc2ccc(Cl)c(C)c2)cc1C (stereo unspecified)	i	1.4
COCCOC(=O)C1=C(C)NC(C)=C(C(=O)OCC=Cc2ccccc2)C1c1cccc([N+](=O)[O-])c1 (stereo unspecified)	i	1.2
O=C(Cc1ccc(NC(=O)N2CCSc3ncccc32)cc1)NCc1cccc(Cl)c1	i	0.37
COc1ccc(NC2c3ccccc3C(=O)N2Cc2ccccc2)cc1 (stereo unspecified)	i	0.28
Cc1c(C(=O)NCC2(N3CCN(C)CC3)CCCCC2)oc2cc(Br)ccc12	i	-0.78
O=c1n(Cc2ccccc2)nc2c(S(=O)(=O)N3CCc4ccccc4C3)cccn12	i	0.15
NS(=O)(=O)c1ccc(CCNCc2ccc(-c3cc(Cl)ccc3Cl)o2)cc1	i	-0.77
Cc1sc2cc(C(=O)NC3CC3)[nH]c2c1CN1CCCCC1	i	0.3
CCNC(=O)c1cc2cc3ccc(Cl)cc3nc2o1	i	-0.69

Copied from the list:
Value of Cc1ccc(NC(=O)c2cccc(NC3=NC4CS(=O)(=O)CC4S3)c2)cc1C (stereo unspecified) in Choline anaer gr early: -1.4
Value of NS(=O)(=O)c1ccc(CCNCc2ccc(-c3cc(Cl)ccc3Cl)o2)cc1 in Choline anaer gr early: -0.77
Value of O=c1n(Cc2ccccc2)nc2c(S(=O)(=O)N3CCc4ccccc4C3)cccn12 in Choline anaer gr early: 0.15
Value of Nc1ccn(C2OC(CO)C(O)C2O)c(=O)n1 (stereo unspecified) in Choline anaer gr early: -0.07&0.46
Value of Cc1c(C(=O)NCC2(N3CCN(C)CC3)CCCCC2)oc2cc(Br)ccc12 in Choline anaer gr early: -0.78
Value of O=C(Cc1ccc(NC(=O)N2CCSc3ncccc32)cc1)NCc1cccc(Cl)c1 in Choline anaer gr early: 0.37

Complete entries from above.
`Cc1sc2cc(C(=O)NC3CC3)[nH]c2c1CN1CCCCC1` is listed as Choline anaer gr = i; Choline anaer gr early = 0.3
`Cc1ccc(-c2nonc2NC(=O)C(C)Oc2ccc(Cl)c(C)c2)cc1C` (stereo unspecified) is listed as Choline anaer gr = i; Choline anaer gr early = 1.4
`NS(=O)(=O)c1ccc(CCNCc2ccc(-c3cc(Cl)ccc3Cl)o2)cc1` is listed as Choline anaer gr = i; Choline anaer gr early = -0.77

More compounds.
SMILES	Choline anaer gr	Choline anaer gr early
CC(C)CCn1c(=O)c2sccc2n2c(SCC(=O)N3CCCC(C)C3)nnc12 (stereo unspecified)	i	-0.21
Cc1cc2c(cc1S(=O)(=O)N1CCCC(C(=O)NC3CCCCC3)C1)OCC(=O)N2 (stereo unspecified)	i	1.2
COc1nccn(-c2ccc(Cl)cc2)c1=O	i	-0.5
CC(C)CCNC(=O)CCc1nc2sc3c(c2c(=O)[nH]1)CCC(C(C)(C)C)C3 (stereo unspecified)	i	0.19
O=C(c1cc(C2CC2)on1)N1CCCC1c1ccccc1F (stereo unspecified)	i	-0.37
CC(C)(C)NC(=O)CN1CCN(c2ccc(NC(=O)C3CCCC3)c(C(=O)O)c2)CC1	i	-0.05
COC(=O)c1ccsc1NC(=O)Nc1cc2c(cc1N1CCCCC1)n(C)c(=O)n2C	i	-0.47
Cc1nc(-c2cccc(N3CC(C(=O)Nc4ccc(C(C)C)cc4)CC3=O)c2)no1 (stereo unspecified)	i	-0.26
O=C(O)C1=CC(/C=C/c2ccccc2)n2ncc(C(=O)Nc3ccccc3)c2N1 (stereo unspecified)	i	0.82
Cc1onc(-c2ccccn2)c1C(=O)N1CCCCC1	i	-0.53
COc1cc(OC)cc(C(=O)Nc2ccc(-c3ccc4ccccc4n3)cc2)c1	i	0.71
O=C(C=Cc1ccccc1)NC(NC(=S)Nc1cccc2cccnc12)C(Cl)(Cl)Cl (stereo unspecified)	i	0.75
Clc1cccc(-c2nn3cnnc3s2)c1	i	-2.8
CCCc1ccc(S(=O)(=O)N2CCC(c3noc(-c4ccccc4)n3)CC2)cc1	i	0.88
COc1ccc2c(c1)NC1(CCN(C(=O)Nc3ccc(OC)c(OC)c3)CC1)c1cccn1-2	i	0.84
CCCCC1=NC2(CCCC2)C(=O)N1Cc1ccc(-c2ccccc2-c2nn[nH]n2)cc1	i	0.1&0.28
Cc1ccc(-c2nc(CN3CCCC(C(=O)NC4CCCCC4)C3)no2)cc1 (stereo unspecified)	i	-1.8
Cc1ccc(-n2nc(SC(C)C(=O)Nc3ccc(S(N)(=O)=O)cc3)ccc2=O)cc1C (stereo unspecified)	i	1.1
O=c1[nH]c(=O)c2ccccc2o1	i	0.05
Cc1cccc(-c2csc(-c3nc(-c4cccc(Cl)c4)no3)c2-n2cccc2)c1	i	1.4
COc1ccc(CSc2nccc3c2ccn3CC(=O)NCc2cccnc2)cc1	i	-0.39
O=C(NC1CCCC1)N1CCc2cc(S(=O)(=O)Nc3ccc(Cl)cc3)ccc21	i	0.63
Cc1ccc(COC2CN(S(=O)(=O)c3ccc(C)cc3)C2)cc1	i	0.51
CCN(CC)S(=O)(=O)c1ccc(N2CC(O)=C(c3nc4ccccc4c(=O)[nH]3)C2=N)cc1	i	0.2
C#CCSc1nc2c(c(=O)[nH]1)C(c1cc(Br)ccc1OC)CC(=O)N2 (stereo unspecified)	i	-0.17
Cc1cccc(Nc2nnc(C(C)(C)C)c(=O)[nH]2)c1	i	0.65
CCCCC[C@H](O)/C=C/[C@H]1[C@H](O)CC(=O)[C@@H]1CCCCCCC(=O)O	i	0.69&0.56&-0.86&0.52
CC(Oc1ccccc1Cl)C(=O)Oc1cccc(-n2cnnn2)c1 (stereo unspecified)	i	0.56
CCOC(=O)C1CCCN(C(=O)c2cc3ccc4ccc(C)[nH]c4c3n2)C1 (stereo unspecified)	i	0.19
Cc1nn(-c2nc3ccccc3s2)c2c1C(c1c(F)cccc1F)CC(=O)N2 (stereo unspecified)	i	0.03
CC(C)c1ccc(-n2cc[nH]c(=O)c2=O)cc1	i	-0.22
CCOCCCNC(=O)C(C)C1CCN(S(=O)(=O)c2cccs2)CC1 (stereo unspecified)	i	-1.4
CC1CCN(C(=O)CSc2nnc(-c3ccc(F)cc3)o2)CC1	i	0.04
O=C(Nc1cc(F)cc(F)c1)C1CC(=O)N(c2ccc3c(c2)CCN3C(=O)C2CC2)C1 (stereo unspecified)	i	0.69
CO/N=C(\C(=O)N[C@@H]1C(=O)N2C(C(=O)OC(C)OC(C)=O)=C(COC(N)=O)CS[C@H]12)c1ccco1 (stereo partly specified)	i	-0.28
O=C(O)CP(=O)(O)O	i	-0.16
O=C(CC1CCN(C(=O)Nc2cccc(Cl)c2)CC1)NCc1cccnc1	i	-0.89
CN(C1CCCCC1)S(=O)(=O)c1ccc2c(c1)NC(=O)CO2	i	0.09
Cc1c(C(=O)N2CCCC(C)C2)sc2nc3n(c(=O)c12)CCC3 (stereo unspecified)	i	-0.09
Cc1ccccc1CN1CCCNC1=O	i	-0.07
O=C(O)C1CCCN1C(=O)Nc1cccc(Cl)c1 (stereo unspecified)	i	-0.59
Cc1ccc(-c2ncc(Cl)cc2-c2ccc(S(C)(=O)=O)cc2)cn1	i	-0.7&0.04
Cc1ccc(C)c(OC(=O)CSc2nc(-c3ccc(Cl)cc3)nc3cc(=O)[nH]n23)c1	i	-0.35
Cc1nc(N2CCc3ccccc32)nc2c1C(=O)CC(C)C2 (stereo unspecified)	i	0.9
Cc1ccc(CSc2nnc(-c3ccncc3)o2)cc1	i	0.89
COc1ccc(-c2noc(CSc3ccc(-c4ccc(Br)cc4)nn3)n2)cc1OC	i	0.11
CCC(C)n1nccc1NC(=O)c1ccc(Cl)cc1 (stereo unspecified)	i	0.44
Cc1ccc(S(=O)(=O)NCCc2csc(-c3ccc(Cl)cc3)n2)cc1	i	1.5
Cc1ccccc1Cn1c(COc2ccccc2)nc2ccccc21	i	1
CCCN(c1nc2nc(C)c(Cl)c(C)n2n1)S(=O)(=O)c1ccccc1	i	0.03
Cc1nn2c(C(F)(F)F)cc(-c3ccccn3)nc2c1-c1ccc(Cl)cc1	i	0.83
Cc1ccc(-c2nc(SCC(=O)N3CCOc4ccc(C)cc43)c(S(=O)(=O)c3ccccc3)[nH]2)cc1	i	0.76
Clc1ccc(-c2nn3c(-c4ccccn4)nnc3s2)cc1	i	0.44
CCOC(=O)c1nc2ccccc2nc1Nc1ccc(OC)cc1	i	0.33
Cn1c(=O)c2c(-c3cccc(Br)c3)c(Nc3ccccc3)oc2n(C)c1=O	i	2.2
Cc1ccc(C2CC(=O)Nc3c2c(C)nn3-c2nncc(-c3ccc(F)cc3)n2)cc1C (stereo unspecified)	i	-0.1
Cc1nc(CCNC(=O)[C@H]2CCCN2S(=O)(=O)c2ccc(Cl)s2)cs1	i	-0.17
CS(=O)(=O)Nc1ccc(C2(C(=O)N3CCC4(CC3)OCCO4)CCCCC2)cc1	i	-1.1
COC(=O)c1ccc(NC(=O)c2sc3nc(C)cc(=O)n3c2C(=O)Nc2cccc(C)c2C)cc1	i	0.5
Cc1noc(C)c1C1CCCN1S(=O)(=O)c1ccc(F)cc1 (stereo unspecified)	i	0.4

(more compounds)
SMILES	Choline anaer gr	Choline anaer gr early
CC(C)NC(=O)Cn1cnn2cc3c(c2c1=O)CCCC3	i	-0.07
COc1cccc(OC)c1C(=O)Nc1ccc(N2CCCS2(=O)=O)cc1	i	-0.08
CCOC(=O)c1[nH]c(C)c(S(=O)(=O)Nc2ccc(OC)c(OC)c2)c1C	i	-0.7
CCOC(=O)c1c(S(=O)(=O)N2CCC(C(=O)NCc3ccc4c(c3)OCO4)CC2)c(C)n(C)c1C	i	-0.68
O=C(Cn1ccc2c(SCc3ccc(F)cc3)nccc21)NCc1ccc(N2CCOCC2)cc1	i	-0.33
